Sfp PPTase inh – qHTS Assay for Inhibitors of Bacillus subtilis Sfp phosphopantetheinyl transferase (PPTase). 3.5% of 310,000 active. Biochemical Sfp PPTase activity, qHTS. 4'-phosphopantetheinyl transferase ffp (Bacillus subtilis), Q9F4F7. Potency, µM, inactives show max response, negative = inhibition, most hits filed as inhibitors; active = well fitted inhibition curve with a large enough effect; inconclusive = small, poorly fitted or top-dose-only effect, or another doubt; inactive = no such curve, though single readings can be large or run the other way;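 also: the enzyme is Sfp with the accession as filed and its product quenches rhodamine fluorescence; potency is read from the fitted curve at half-maximal effect; 0% = enzyme reaction without inhibitor and -100% = no enzyme wells; top concentration of the series not given in the record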
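Fluorescence-quenching assay: 15 nM Sfp-PPTase preincubated 15 min at room temperature with compound, then 5 uM rhodamine-CoA and 12.5 uM BHQ-2-labelled YbbR peptide added. Fluorescence (ex 525/em 598 nm) read at start and after 30 min; difference gives rate.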
PINK1 expr mod – A Quantitative High throughput Screen to Identify Chemical Modulators of PINK1 Expression; PINK1 immunofluorescence, high-content cytometry, 24 h; Potency, µM (titrated, usually from 76.6 µM), for the others: top-dose activation (PINK1 increase), hits mostly activators; 0.2% of 410,000 active; AID 624263, 2012; active = well fitted activation curve with a large enough effect; inconclusive = small, poorly fitted or top-dose-only effect; inactive = flat fitted curve, though single readings scatter; cell line not stated here;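 also: potency is read from the fitted curve at half-maximal effect; % of control where 0% means no effect; nearly all actives have a fitted effect of over 65% in size; a mitochondrial uncoupler was the plate control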
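Stable cell line treated 24 h with compounds at 5 concentrations (CCCP controls), then fixed and immunostained for PINK1 plus nuclear and cell stains; PINK1 immunofluorescence quantified by laser-scanning microplate cytometry.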
ClpP mod – qHTS Assay for Activators of ClpP; Potency, µM (highest dose often 57.5 µM), for inactives: at the top dose activity change, negative = active; 1.9% of 340,000 active; purified B. subtilis ClpP, FRET peptide cleavage, 20 min; ATP-dependent Clp protease proteolytic subunit (Bacillus subtilis (strain 168)), P80244; active = well fitted falling curve with a large enough effect; inconclusive = small, poorly fitted or top-dose-only effect; inactive = no such curve, though single readings can be large or run the other way; also: potency is read from the fitted curve at half-maximal effect; the source files actives as falling curves though it sought activators and does not explain the sign; nearly all actives have a fitted effect of over 65% in size; many hits overshoot -100%
Target sequence (P80244 whole entry, looked up): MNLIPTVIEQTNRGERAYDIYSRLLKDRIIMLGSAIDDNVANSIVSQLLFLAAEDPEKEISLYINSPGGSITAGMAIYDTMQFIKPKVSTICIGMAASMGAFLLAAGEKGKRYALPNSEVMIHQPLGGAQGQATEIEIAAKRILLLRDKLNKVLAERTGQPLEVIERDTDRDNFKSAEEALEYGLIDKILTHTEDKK
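Buffer: 100 mM Tris/HCl pH8, 100 mM KCl, 0.05% low protease BSA, 2.5% glycerol, 0.01% Tween-20. ClpP 10 microg/mL final; 20 min RT; delta FRET normalized to ADEP and DMSO controls.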
TRPML1 blocker – qHTS for Inhibitors of the Human Mucolipin Transient Receptor Potential 1 (TRPML1); Mucolipin-1 (Homo sapiens), Q9GZU1; TRPML1-inducible cells, Ca2+ dye fluorescence, FDSS; hits give low values; inhibition of EC80 agonist-evoked calcium signal; activity change, negative = inhibition, % (concentration not given with the values); 0.02% of 390,000 active; in the data active means activity change below about -50%; inconclusive means about -30% to -50%; inactive means above about -30%;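 also: stimulus is agonist 54-4 at its EC80 concentration; % is scaled to controls: 0 for no effect and ±100 for the full control effect; compound concentration not given in the record; the text of the record puts the active cut at -80%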
Target sequence (Q9GZU1 whole entry, looked up): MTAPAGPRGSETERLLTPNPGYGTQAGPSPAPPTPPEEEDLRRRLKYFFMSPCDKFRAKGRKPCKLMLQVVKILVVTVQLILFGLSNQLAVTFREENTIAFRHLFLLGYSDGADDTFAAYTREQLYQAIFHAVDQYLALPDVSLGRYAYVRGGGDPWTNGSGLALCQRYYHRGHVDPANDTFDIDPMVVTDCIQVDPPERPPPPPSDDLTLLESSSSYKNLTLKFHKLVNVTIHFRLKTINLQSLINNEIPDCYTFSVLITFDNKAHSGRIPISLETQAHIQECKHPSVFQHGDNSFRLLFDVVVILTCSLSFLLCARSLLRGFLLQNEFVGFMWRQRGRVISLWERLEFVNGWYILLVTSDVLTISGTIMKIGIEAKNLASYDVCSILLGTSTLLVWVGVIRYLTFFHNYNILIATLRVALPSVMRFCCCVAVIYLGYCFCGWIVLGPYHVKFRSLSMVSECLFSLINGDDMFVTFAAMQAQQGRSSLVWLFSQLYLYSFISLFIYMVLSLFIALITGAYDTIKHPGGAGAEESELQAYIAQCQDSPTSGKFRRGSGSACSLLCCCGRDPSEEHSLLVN
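TRPML1-DL cells, Tet-induced overnight (~16 h, 37 °C) at 1,500 cells/well, were loaded with Ca8 no-wash dye plus quencher for 45-90 min at room temperature. Compounds were pinned during FDSS kinetic reading; agonist 54-4 at EC80 (4 uM final) then added.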
TRPML1 ag – qHTS for Agonists of the Human Mucolipin Transient Receptor Potential 1 (TRPML1); Mucolipin-1 (Homo sapiens), Q9GZU1; TRPML1-expressing cells, Ca2+ dye fluorescence, FDSS; host cell line not named in the record; reference of the full effect not given here; activation, % (concentration not given with the values); 0.12% of 410,000 active; in the data active = activation above about 50%; inconclusive = about 30% to 50%; inactive = below about 30%; also: 0% is about no effect; the text of the record puts the active cut at 80%
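Calcium fluorescence on an FDSS kinetic reader gave the read-out. Tet-induced TRPML1-DL cells were plated overnight, dye-loaded (Ca8 with quencher, 45-90 min, room temperature, dark), then read 110 s after compound addition, and again 110 s after 4uM final 54-4 (EC80).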
Menin-MLL FL inh – qHTS Assay for Inhibitors Targeting the Menin-MLL Interaction in MLL Related Leukemias: Competition With Fluorescein Labeled MLL-derived Peptide; FP activity change, % at 61.4 µM; 290,000 tested, under 10 active; AID 1766, 2009; Fluorescence polarization, fluorescein-MLL peptide displacement from menin; inconclusive = falling polarisation curve, or a change in total fluorescence; inactive = total fluorescence flat and polarisation flat or rising; no compound was filed as active; the % refers to the polarisation; negative = inhibition;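 also: % of control where 0% means no effect; inhibitors lower the polarisation; unlabelled MLL peptide was the positive control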
TRPV1 potentiator – HTS Assay for Compounds that Act as Potentiators of the Vanilloid Receptor 1 | Transient receptor potential cation channel subfamily V member 1 (Homo sapiens), Q8NER1 | TRPV1-expressing cells, Fluo-8 calcium influx, capsaicin EC20 potentiation; host cell line not named in the record; control for the full effect not named in the record | potentiation, % at 8.33 µM | 0.02% of 320,000 active | AID 540277, 2011; active means potentiation above 80%; inconclusive means 30% to 80%; inactive means below 30%; also: 0% is about no effect
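Cells expressing TRPV1 were dye-loaded with Fluo-8 and read kinetically: 10 s baseline, 3 min after compound (agonist portion), then 2 min after EC20 capsaicin (allosteric enhancer portion). Calcium-bound dye fluorescence at 480/520 nm.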
An asterisk follows results filed as active; ? = inconclusive; / = no result given; & = joins results of further samples; [ ] = remark or other dose.

SMILES	Sfp PPTase inh	PINK1 expr mod	ClpP mod	TRPML1 blocker	TRPML1 ag	Menin-MLL FL inh	TRPV1 potentiator
Cc1cc(C)c([N+](=O)[O-])cc1NC(=O)CCS(=O)(=O)c1ccccc1	6%	0.6%	0.8%	1	-0.4	-1.6	-1
CC(=O)OCC(NC(=O)C1CCCN1C(=O)OC(C)(C)C)C1OC(n2ccc(=O)[nH]c2=O)C(OC(C)=O)C1OC(C)=O (configuration not stated)	1%	/	/	-5	0.6	0.0	/
Cc1c(C(=O)NCc2ccc(F)cc2)sc2nc3n(c(=O)c12)CCC3	/	0.3%	-18%	19	-0.2	/	/
S=C(NCCc1ccccn1)Nc1ccccc1	15%	3.2%	1.7%	23	0.1	0.1	-2
Oc1oc(-c2ccco2)nc1C=Nc1cccc(Cl)c1	-9%	9.1%[38.3 µM]	-1.8%	-6	2.7	3.1	-2
COc1ccccc1-n1cnc2cc(NS(=O)(=O)c3ccccc3)ccc21	-28%	-0.1%	2.9%	3	-0.2	2.3	12
COc1cc(OC)cc(C(=O)Nc2ccc(N(C)C)c3ccccc23)c1	8%	2.0%	1.3%	26	1.5	3.4	2
Cc1cccc2cc(C(c3nnnn3CC3CCCO3)N3CCOCC3)c(=O)[nH]c12 (configuration not stated)	5%	0.9%	?	20	-0.8	-0.4	4
CSc1ncccc1C(=O)NCC1CCCCC1	13%	0.4%	-0.3%	-11	0.8	-6.5	-6
CCCSc1nnc(Cc2cc(=O)[nH]c(=O)[nH]2)n1-c1cc(C)ccc1C	3%	2.4%	1.4%	-24	0.4	-2.1	-6
CCOc1ccc(CCNc2cc(C)nc3ncnn23)cc1OCC	21%	3.5%	-1.9%	18	0.6	2.1	-1
Fc1ccc(CN2CCCCCCC2)cc1	-2%	0.2%[38.3 µM]	1.5%	-18	0.1	2.6	10
CCOC(=O)c1c(NC(=O)COC(=O)CCOc2ccccc2C)sc(C(=O)NC)c1C	/	18%	20µM*	19	3.0	/	-4
COc1ccc(S(=O)(=O)N2CCN(c3ncccn3)CC2)cc1	/	0.1%	-8.0%	-3	-0.8	/	/
Cc1sc(NC(=S)NC(=O)c2ccccc2)c(C#N)c1C	/	6.6%	-2.3%	-15	0.1	/	/
CCOC(=O)CSc1nncc2ccc(OC)c(OC)c12	10%	5.8%[38.3 µM]	-2.8%	10	0.4	1.2	5
CN(c1ccc(Cl)cc1)S(=O)(=O)c1nnc(NC(=O)c2ccco2)s1	21%	0.4%&-0.5%	-9.1%&-3.2%	2&-10	0.7&1.3	/	-3
Cc1nc(=O)c(-c2ccccc2)c(C)n1-c1ccc(O)cc1	7%	?	1.1%	8	0.6	0.0	-7
NS(=O)(=O)c1ccc(NC(=O)C2Cc3ccccc3C(=O)O2)cc1 (configuration not stated)	15%	2.3%	-2.0%	3	-0.6	-1.5	1
Cc1[nH]c2ccccc2c1C(=O)CSC(=S)N1CCOCC1	12%	-0.8%	1.0%	2	0.6	0.6	2
COc1cccc(NC(=O)Nc2cccc(C(=O)O)c2)c1	13%	0.8%	/	39	-0.5	-2.1	3
CCN(CC)N=Nc1[nH]nc2nc(C)cc(C)c12	-12%	-0.8%	-0.7%	15	-0.2	0.2	10
CC(CCc1ccccc1)NC(=O)COC(=O)c1cccs1 (configuration not stated)	0%	-0.2%	/	-3	0.7	-1.8	13
COc1cc(C(=O)NCCc2csc3nc(-c4ccccc4C)nn23)cc(OC)c1OC	/	1.2%	-4.0%	-11	4.0	/	/
CN(C)C(=O)COc1ccccc1C(=O)OCC(=O)Nc1ccc(Oc2ccc(Br)cc2)cc1	/	0.5%	-4.8%	/	-0.2	/	/
O=C(Cc1cccs1)Nc1nnc(-c2ccccc2)s1	-11%	3.6%	-6.9%	-12	0.2	2.7	-24
CCOC(=O)c1c(C)c(C(=O)N2CCN(C(=O)c3ccco3)CC2)c(C)n1C	4%	7.6%[38.3 µM]	-0.8%	1	0.0	1.4	17
O=C(COc1cccc2c1CCNC2=O)Nc1ccc(F)cc1	/	-0.8%	-3.9%	4	-0.5	/	16
CC(C)Oc1ccccc1C1NC(=O)CCC1[N+](=O)[O-] (configuration not stated)	0%	-0.1%	/	-2	-0.1	-6.4	-5
O=C1C=C(NCc2ccc(Cl)cc2)CCC1	7%	1.2%	-0.3%	-7	1.0	7.7	-1
Cc1ccc(N2CC(NC(=O)C3CCCC3)CC2=O)cc1 (configuration not stated)	/	-0.6%	0.4%	13	0.4	/	/
Cc1cc(/C=N/O)c(C)n1-c1cccc(Cl)c1	-15%	-2.8%	-1.3%	0	0.1	0.7	-12
O=C1CCCc2c1oc1c2CCCC1	/	1.3%	/	12	-0.9	/	/
O=[N+]([O-])c1ccc(N=NNc2ccc([N+](=O)[O-])cc2)cc1	/	-3.0%	/	-1	0.2	/	/
Cc1ccc(CNS(=O)(=O)CCNC(=O)c2ccc3c(c2)OCO3)cc1	/	-0.5%	-22%	-11	0.1	/	10
c1cnc2nc(-c3ccc4c(c3)OCO4)cn2c1	11%	1.5%	/	-15	-1.3	-0.2	-1
CCCCCC[N+](C)(C)CCSSCC[N+](C)(C)CCCCCC	-18%	0.2%	1.8%	-1	0.3	2.8	-9
CCOC(=O)[C@H]1[C@H]2COc3ccccc3[C@@H]2N2C(=O)c3cc(F)ccc3NC(=O)[C@@]12C	/	2.5%	0.0%	-13	-0.7	/	10
Cc1ccc(N2CCCCn3c2nc2c3c(=O)n(CC(=O)O)c(=O)n2C)cc1	8%	-1.3%	-1.5%	-5	-0.7	2.2	0
O=C(OCCN1CCCC1)C1(c2ccccc2)CCCC1	15%	0.9%	1.8%	6	0.3	0.3	14
Cc1ccc(CN(C(=O)COc2ccccc2[N+](=O)[O-])c2ccccn2)cc1	/	-0.1%	-4.4%	2	0.1	/	/
COC(=O)c1nnn(CC(=O)NC(=O)Nc2ccc(F)cc2)c1C(=O)OC	1%	2.5%&-0.1%	-8.5%&4.2%	0&9	-0.4&-0.3	-0.8	23
CNc1c(NS(=O)(=O)c2cc(OC)ccc2OC)c(=O)oc2ccccc12	-2%	-2.1%	/	1	2.2	-1.2	?
CCN(C(=O)CSc1nnnn1C)c1c(N)n(Cc2ccccc2)c(=O)[nH]c1=O	9%	1.7%	1.3%	-14	0.3	-2.3	-2
Cn1ccnc1SCC(=O)c1c[nH]c2ccccc12	13%	1.0%	/	2	-0.2	-1.1	0

As a short view, part of the list above:
SMILES	Sfp PPTase inh	PINK1 expr mod	ClpP mod	TRPML1 blocker	TRPML1 ag	Menin-MLL FL inh	TRPV1 potentiator
S=C(NCCc1ccccn1)Nc1ccccc1	15%	3.2%	1.7%	23	0.1	0.1	-2
Oc1oc(-c2ccco2)nc1C=Nc1cccc(Cl)c1	-9%	9.1%[38.3 µM]	-1.8%	-6	2.7	3.1	-2

Following part.
SMILES	Sfp PPTase inh	PINK1 expr mod	ClpP mod	TRPML1 blocker	TRPML1 ag	Menin-MLL FL inh	TRPV1 potentiator
Cc1ccccc1N(CC(=O)NC(C)(C)C)C(=O)c1ccc(-c2ccccc2)[nH]1	9%	/	/	/	/	-1.7	7
CN(Cc1ccccc1)S(=O)(=O)c1ccc(Cl)nc1	30%[activator]	4.8%	-4.9%	4	-0.8	4.1	-4
Cc1ccc(-c2csc3ncnc(SCC(=O)Nc4nnc(C)s4)c23)cc1	-2%	?	-7.6%	10	0.3	3.0	1
O=C1C2CC=C(Cl)CC2C(=O)N1CCc1c[nH]c2ccccc12 (configuration not stated)	17%	8.0%[38.3 µM]	-2.2%	-19	-0.1	1.1	8
Cc1ccc(F)c(S(=O)(=O)NC(=O)C2(C)CCN2C(=O)CC(c2ccccc2)c2ccccc2)c1 (configuration not stated)	/	-0.1%	-0.8%	/	-1.1	/	/
O=C(NCC1CCCO1)c1ccc2c(=O)n(CC3CCCO3)c(=S)[nH]c2c1 (configuration not stated)	-2%	-3.5%	0.1%	6	1.0	0.1	17
OCC1OC(n2nnc3ccccc32)C(O)C(O)C1O (configuration not stated)	7%	2.7%	-2.8%	-4	0.2	3.6	0
COc1cc(NC(=O)c2ccccc2)c(C)cc1NC(=O)CC(CC(=O)O)c1ccccc1 (configuration not stated)	14%	1.3%	/	47	1.4	1.6	15
COc1ccc(CCNC(=O)C(=O)NCC2OCCN2S(=O)(=O)c2ccc3c(c2)OCCO3)cc1 (configuration not stated)	9%	-0.1%	-2.0%	-5	1.2	/	-5
O=C(Cc1ccc(Br)cc1)Nc1ccccc1Sc1ccccc1	0%	-1.8%[38.3 µM]	-0.6%	-8	3.1	-0.4	8
O=C(CNC(=O)c1cccs1)NCCN1CCC(Cc2ccccc2)CC1	-2%	/	/	/	/	-3.5	7
CCCN(C(=O)CSc1nc(C2CC2)n(-c2ccccc2)n1)C1CCS(=O)(=O)C1 (configuration not stated)	/	-0.4%	-1.4%	2	-0.3	/	0
CC1(C)Cc2c(c(-c3ccco3)[nH]c(=O)c2C#N)CO1	-11%	-1.1%	-17%	4	-0.3	3.2	-8
COCCCN1C(=O)c2ccc(C(=O)NCc3ccco3)cc2C1=O	19%	1.1%	-1.1%	-13	-0.8	0.4	6
COC(=O)c1ccc(-c2sc3nc(N4CCOCC4)c4c(c3c2N)CC(C)(C)OC4)o1	15%	11%	-14%	-9	0.5	8.0	20
Cc1cccc(NC(=O)c2ccco2)c1C	30%	-0.1%	1.1%	-15	0.3	-2.0	10
Cc1ccc2cc(CCNC(=O)C(C)C)c(=O)[nH]c2c1C	6%	-0.6%	-10%	83	-0.6	-10	?
CCCCOC(=O)CSc1nnc(-c2ccc(C)cc2)o1	/	1.3%	-17%	0	3.9	/	/
O=C(COC(=O)C1CCC(=O)N1)Nc1cc(Cl)ccc1Cl (configuration not stated)	25%	-0.6%	2.0%	30	1.8	-2.4	4
CCc1cc(C(=O)NC(C)C2CCCO2)cs1 (configuration not stated)	5%	2.0%	0.5%	-11	-0.6	/	-1

Bioassay records from PubChem.
